High-throughput results from PubChem.
Mtb H37Rv – Mycobacterium tuberculosis H37Rv growth inhibition, cell based, confirmatory dose response (AID 1949); most inactive calls were filed without a number and no value below 0 was filed; 100,000 tested, 1.6% active; one-dose inhibition, % at 10 µg/mL; IC50 in µg/mL for titrated hits;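 active means confirmed in a dose series; inconclusive means about 50% or more but not retested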;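 further: bacteria grown 7 days with compound before Alamar blue readout; 0% = untreated bacteria and 100% = reference antibiotic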
Numbers without * were called inactive; i = inactive; ? = inconclusive. Only part of the results is shown; the hit share may differ from the screen's.

nr | smiles | Mtb H37Rv
1 | Cc1ccc(NC(=O)Nc2ccc(C(=O)N3CCOCC3)cc2)cc1 | i
2 | CCN(CC)C(=O)COc1cc2oc(=O)c(CC(=O)OC)c(C)c2cc1Cl | i
3 | CCC(C)Nc1ncnc2ccccc12 (stereo not drawn) | 2%
4 | Cc1cc(N2C(=O)CC(N3CCN(C(c4ccccc4)c4ccccc4)CC3)C2=O)no1 (stereo not drawn) | i
5 | COC(=O)c1c(-c2ccc(Br)cc2)csc1NC(=O)c1cccc(F)c1 | i
6 | COc1ccccc1Oc1ccc(NC(=O)c2ccccc2F)cc1 | i
7 | CCOc1ccc(CC(=O)NNC(=S)NC2CCCCC2)cc1OCC | i
8 | COC(=O)c1c(NC(=O)c2c(F)c(F)c(F)c(F)c2F)sc2c1CCCCC2 | 0.36µg/mL*
9 | O=S(=O)(c1ccc(-c2ccccc2)cc1)N1CCN(c2ccccc2)CC1 | i
10 | CC(C)(C)C(=O)CSc1nnc(SCc2cccc3ccccc23)s1 | 3%
11 | CCc1cc2c(NCCC(=O)O)ncnc2s1 | i
12 | Cc1ccc(C)c(-n2nnnc2SCC(=O)Nc2ccc(F)cc2)c1 | i
13 | Cn1c(SCc2ccccc2)nnc1-c1ccc2c(c1)OCO2 | i
14 | Cn1c(=O)[nH]c(=O)c2[nH]c(-c3ccccc3Cl)nc21 | i
15 | O=C(CCC(=O)c1ccccc1)Nc1ccccc1F | i
16 | CC1=C(C(=O)Nc2ccccc2F)C(c2cccc([N+](=O)[O-])c2)NC(=S)N1 (stereo not drawn) | i
17 | COCCn1c(SCC(=O)c2ccc(Cl)cc2)nnc1-c1ccccc1 | i
18 | NS(=O)(=O)c1ccc(CCNC(=O)c2ccc(C#Cc3ccccc3)cc2)cc1 | 0%
19 | CCOc1ccc(S(=O)(=O)N(CC)c2cccc(C)c2)cc1 | 7%
20 | Cc1ccc(NC(=O)c2sc3ncn(Cc4ccc(C(=O)OC(C)C)cc4)c(=O)c3c2C)c(C)c1 | 0%
21 | CNC(=S)Nc1ccccc1C(F)(F)F | i
22 | COc1ccc(NC(=O)C(C)NC(=O)C23CC4CC(CC(C4)C2)C3)cc1 (stereo not drawn) | i
23 | CS(=O)(=O)N(CCc1ccccc1)CC(=O)N1CCN(C(c2ccccc2)c2ccccc2)CC1 | i
24 | Brc1ccc(C2=CC(c3ccccc3)n3ncnc3N2)cc1 (stereo not drawn) | i
25 | CCCC(=O)Nc1ccc(Cl)c(NC(=S)NC(=O)c2sc3ccccc3c2Cl)c1 | i
26 | COc1cccc(N(CC(=O)Nc2ccc(C)cc2)S(C)(=O)=O)c1 | 1%
27 | Cc1ccc(-c2nn(CC(=O)N3CCCC3)c(=O)c3ccccc23)cc1 | 1%
28 | COc1cccc(-c2cc(C(F)(F)F)n3ncnc3n2)c1 | i
29 | CCn1c(SCC(=O)Nc2ccc(S(=O)(=O)Nc3onc(C)c3C)cc2)nnc1-c1ccccc1 | i
30 | FC(F)(F)c1ccccc1NC(=S)Nc1ccc(Br)cn1 | i
31 | CCOc1ccc2nc(SCC(=O)Nc3nc4ccc(OCC)cc4s3)[nH]c2c1 | i
32 | COc1cccc(C(=O)Nc2cc3nn(-c4ccc(C)cc4)nc3cc2C)c1 | i
33 | CC(C)CCNC(=O)c1cccc(Cl)c1 | i
34 | O=S(=O)(Cc1ccc(Cl)cc1)c1nc2ccccc2n1Cc1ccc(Cl)cc1 | i
35 | C=C(C)COc1ccc2c(=O)c(-c3ccc(OC)c(OC)c3)c(C)oc2c1 | 2%
36 | CS(=O)(=O)N(CC(=O)Nc1ccccc1C(=O)N1CCCC1)c1ccc(F)c(Cl)c1 | i
37 | Cc1oc2ccc(OCc3cccc(Br)c3)cc2c1C(=O)O | 21%
38 | Cc1ccc(-c2csc3ncnc(NCCN4CCOCC4)c23)cc1 | i
39 | Cc1cc(-n2c(C)cc(CO)c2C)ccc1Br | i
40 | CC(=O)c1ccc(NC(=O)C2CC(=O)N(c3cccc(C)c3)C2)cc1 (stereo not drawn) | i
41 | O=Cc1cn(CC(=O)NCc2cccs2)c2ccc(Br)cc12 | i
42 | CC(Sc1nnc(-c2ccc(Cl)cc2Cl)n1Cc1ccccc1)C(=O)Nc1nccs1 (stereo not drawn) | 1%
43 | COC(=O)Cc1cc(=O)n(-c2nc3ccccc3s2)[nH]1 | i
44 | O=C(NCCCNc1ccc(C(F)(F)F)cc1[N+](=O)[O-])c1ccc(F)cc1 | i
45 | COc1ccc(NC(=O)Cn2nc(-c3ccc(C)c(S(=O)(=O)N(C)C)c3)c3ccccc3c2=O)cc1 | i
46 | Cc1ccc(Cc2cnc(CN3CCOCC3)c(O)c2)cc1 | i
47 | COc1ccc(/C=C(\C#N)c2ccccc2)c(OC)c1 | 45%
48 | CCOc1ccc(C(=O)NC2C3CC4CC(C3)CC2C4)cc1Cl (stereo not drawn) | i
49 | COC(=O)c1sc2cc(NC(=S)NN3CCOCC3)ccc2c1Cl | i
50 | O=C1c2cccc3cccc(c23)C(=O)N1CCN1CCNCC1 | i
51 | CSc1nnnn1-c1ccc(I)cc1 | 2%
52 | O=C(NCc1cccs1)c1ccccc1F | 10%
53 | O=C(NN(c1ccccc1)c1ccccc1)C1CC2CCCC(C1)C2=O (stereo not drawn) | 3%
54 | O=C1C2C3c4ccccc4C([N+](=O)[O-])(c4ccccc43)C2C(=O)N1CCCCO (stereo not drawn) | 1%
55 | Fc1ccc(CCNC(=S)Nc2ccc(F)cc2)cc1 | i
56 | COc1ccccc1-c1cc(C(F)(F)F)nc(S(=O)(=O)CCCC(=O)N2CCOCC2)n1 | 16%
57 | COc1cc(C2/C(=C(/O)c3ccccc3)C(=O)C(=O)N2c2cccc(Br)c2)ccc1O (stereo not drawn) | i
58 | O=C(Nc1ccc2oc(-c3cc(F)c(F)cc3Cl)nc2c1)c1cccs1 | 5%
59 | COc1ccc(C(=O)Nc2ccc(C(=O)N3CCCCC3)cc2)cc1OC | i
60 | CCCCC(=O)Nc1ccc(Cl)cc1C(=O)c1ccccc1 | 6%

Among those listed so far, these have a Cl atom.
nr | smiles | Mtb H37Rv
2 | CCN(CC)C(=O)COc1cc2oc(=O)c(CC(=O)OC)c(C)c2cc1Cl | i
14 | Cn1c(=O)[nH]c(=O)c2[nH]c(-c3ccccc3Cl)nc21 | i
17 | COCCn1c(SCC(=O)c2ccc(Cl)cc2)nnc1-c1ccccc1 | i
25 | CCCC(=O)Nc1ccc(Cl)c(NC(=S)NC(=O)c2sc3ccccc3c2Cl)c1 | i
33 | CC(C)CCNC(=O)c1cccc(Cl)c1 | i
34 | O=S(=O)(Cc1ccc(Cl)cc1)c1nc2ccccc2n1Cc1ccc(Cl)cc1 | i
36 | CS(=O)(=O)N(CC(=O)Nc1ccccc1C(=O)N1CCCC1)c1ccc(F)c(Cl)c1 | i
42 | CC(Sc1nnc(-c2ccc(Cl)cc2Cl)n1Cc1ccccc1)C(=O)Nc1nccs1 (stereo not drawn) | 1%
48 | CCOc1ccc(C(=O)NC2C3CC4CC(C3)CC2C4)cc1Cl (stereo not drawn) | i
49 | COC(=O)c1sc2cc(NC(=S)NN3CCOCC3)ccc2c1Cl | i
58 | O=C(Nc1ccc2oc(-c3cc(F)c(F)cc3Cl)nc2c1)c1cccs1 | 5%
60 | CCCCC(=O)Nc1ccc(Cl)cc1C(=O)c1ccccc1 | 6%

Next section
nr | smiles | Mtb H37Rv
61 | O=C(CN1C(=O)C2C3C=CC(C3)C2C1=O)Nc1cccc(Cl)c1 (stereo not drawn) | i
62 | O=S1(=O)N=C(Nc2cc(Cl)cc(Cl)c2)c2ccccc21 | i
63 | COc1ccc(C(=O)/C=C/c2ccc(-c3ccc(F)cc3)o2)cc1 | 12%
64 | Cc1ccc(N(CC(=O)N2CCN(C)CC2)S(C)(=O)=O)cc1C | i
65 | COc1ccc(NC(=S)Nc2ccc(N3CCOCC3)c3nonc23)cc1OC | ?
66 | COCCCNCCOCCOc1ccc(C(C)C)c(C)c1 | i
67 | CCCC(CCC)C(=O)Nc1ccc(C(=O)NC(C)(C)C)cc1 | i
68 | CCc1cc(=O)oc2cc(OCc3ccccc3C)c(Cl)cc12 | i
69 | CCOC(=O)C1CCN(C(=O)N(C)C)CC1 | i
70 | CCOC(=O)COc1ccc(Oc2nc(N(C)C)nc(N(C)C)n2)nn1 | i
71 | COC(=O)c1c(NC(=O)CC2Sc3ccccc3NC2=O)sc(C)c1C (stereo not drawn) | i
72 | CSc1ccc(S(=O)(=O)N(CC(=O)NCc2ccc(C)cc2)c2ccc(C)cc2)cc1 | i

The results go on:
entry	Compound	Mtb H37Rv
73	COc1cc(C)c(S(=O)(=O)N2CCCC2)cc1C	i
74	CCCOc1ccc(-c2cnc(N)s2)cc1	14%
75	O=S(=O)(c1ccc(Cl)cc1)N1CCN(c2ccccn2)CC1	i
76	COc1ccc(NC(=O)c2ccccc2OCC(=O)Nc2ccccc2C(F)(F)F)c(C)c1	5%
77	O=C(CSc1nnnn1-c1ccccc1)C12CC3CC(CC(C3)C1)C2	1%
78	N#Cc1ccccc1NC(=O)C(Cl)(Cl)Cl	i
79	CC1CCN(CCC(=O)Nc2ccc(F)cc2)CC1	i
80	CC1(C)Cc2ccccc2-c2nc(NCCCO)n(-c3ccccc3)c(=O)c21	i
81	COc1ccc(Cl)c(Cn2c(NCC3CCCO3)nc3c2c(=O)n(C)c(=O)n3C)c1 (stereo not drawn)	i
82	CCC(=O)NC(=S)Nc1ccc(C(C)C)cc1	<0.1µg/mL*
83	COC(=O)c1ccc(NC(=O)c2cnsn2)cc1	i
84	COC(=O)Cc1c(C)c2ccc(OCC(=O)c3ccc(C)cc3)cc2oc1=O	i
85	Fc1ccccc1CNC(=S)Nc1cccc(C(F)(F)F)c1	?
86	c1ccc(-c2nc(N3CCCCC3)cc(-n3cccn3)n2)cc1	1%
87	CC(=O)Nc1ccc(C(=O)Nc2cc(C(F)(F)F)ccc2Cl)cc1	12%
88	C=CCc1cccc2cc(C(=O)Nc3cccc(F)c3)c(=O)oc12	i
89	CCCC(=O)N1CCN(c2ccc(NC(=O)c3cc4ccccc4o3)cc2)CC1	?
90	CC(C)N(C(=O)Cn1nnc2ccccc21)c1ccccc1	i
91	O=C(N1CCOCC1)N1CCN(CC(O)COc2ccc3ccccc3c2)CC1 (stereo not drawn)	i
92	CCCCNCCOCCOc1ccccc1C(C)(C)C	0%
93	CCN(CC)C(=O)C(=O)Nc1ccc(I)cc1	i
94	Cc1ccccc1CN(c1ccc(C(=O)N2CCN(c3ccccc3F)CC2)cc1)S(C)(=O)=O	0%
95	CC(OC(=O)c1cccc(NC(=O)Cc2ccccc2)c1)C(=O)c1ccccc1 (stereo not drawn)	i
96	C=CCOc1ccc(CNCc2ccc(F)cc2)cc1OCC	i
97	Cc1nn2cnc3sc4c(c3c2nc1=O)CCC(C(C)(C)C)C4 (stereo not drawn)	i
98	Cc1cc(Br)ccc1OCCOCCNC(C)(C)C	i
99	O=C(Nc1ccc(OC(F)F)c(Cl)c1)Nc1ccc(Cl)cc1Cl	2%
100	O=C(O)c1ccc(-c2nnn(Cc3ccc(Cl)cc3Cl)n2)cc1	i
101	Cc1cccc(NC(=S)NCc2ccccc2)c1C	i
102	CCOc1ccc(NC(=O)c2c(NC(=O)c3ccccc3F)sc3c2CCC(C)C3)cc1 (stereo not drawn)	i
103	CC(C)NC(C)C(O)c1ccc2c(c1)CCCC2 (stereo not drawn)	i
104	CCc1nc2ccc(C(=O)O)cc2nc1CC	i
105	CC(=O)Nc1ccc(C2C(C#N)=C(N)Oc3n[nH]c(-c4ccccc4Cl)c32)cc1 (stereo not drawn)	i
106	Cc1ccc2oc(C(=O)N(C)c3ccccc3)c(C)c2c1	i
107	CC(=O)Nc1ccc(NC(=O)Cc2ccc(C)cc2)cc1	i
108	CCc1ccccc1NC(=O)CSc1nnc(-c2ccncc2)n1CC(C)C	i
109	Cc1ccc(NC(=O)CCC(=O)N2CC(=O)NC(=O)C2)cc1	i
110	COc1ccc(CC(=O)Oc2ccccc2[N+](=O)[O-])cc1	3%
111	COc1ccc(Cl)cc1NS(=O)(=O)c1cc(Br)ccc1OC	i
112	COc1ccc(N(CC(=O)Nc2ccccc2SC)S(=O)(=O)c2ccc(F)cc2)cc1	1%
113	O=C(NCc1ccc2c(c1)OCO2)N1c2ccccc2Sc2ccccc21	1%
114	O=C(NCc1ccco1)c1sc2cccc(F)c2c1Cl	i
115	CCc1ccc(C(=O)NCCOC)s1	i
116	CCCCC(=O)Nc1ccccc1OCC	i
117	COc1ccc(Br)cc1C(=O)Nc1cccc(OC(C)=O)c1	1%
118	O=C(Nc1ccc2c(c1)nc1n2CCN(Cc2ccccc2)C1)NC1CCCCC1	i
119	O=C(CN(c1cccc([N+](=O)[O-])c1)S(=O)(=O)c1ccccc1)Nc1ccc(Br)cc1	1%
120	CCN(CC)C(=O)CSc1nnc(-c2cnccn2)n1C	i
121	CC(C)Oc1cccc(C(=O)NC(=S)Nc2ccc(Cl)c(C(=O)O)c2)c1	i
122	COC(=O)C1=C(C)Nc2ncnn2C1c1ccc(Br)s1 (stereo not drawn)	0%
123	CCCC(=O)N1CCN(c2ccc(NC(=O)c3cc4ccccc4o3)cc2Cl)CC1	34µg/mL*
124	Cc1ccc(-c2csc(NC(=O)CSc3nc(C)cc(=O)[nH]3)n2)cc1	i
125	O=C1C2C3C=CC(C3)C2C(=O)N1CCN1CCNCC1 (stereo not drawn)	2%
126	O=C(NCc1cccnc1)c1ccc(-c2ccc(Cl)cc2)o1	i
127	N/C(=N\OC(=O)c1ccco1)c1ccncc1	i
128	CC(C)(C)NC(=O)CCSc1ccccc1	i
129	Cc1cccc(OCC(=O)Nc2cccc(-c3nnc(-c4ccccc4)o3)c2)c1	5%
130	COc1ccc(-n2c(N)c(Br)c(=O)[nH]c2=O)cc1	i
131	Cc1ccc(OCC(=O)Nc2ccc3c(c2)C(=O)NC3=O)c(C)c1	i
132	Cc1c(NC(=O)CC23CC4CC(CC(C4)C2)C3)cccc1-c1nc2ncccc2o1	1%

Next section.
entry	Compound	Mtb H37Rv
133	CC(C)C(NC(=O)CN(c1ccc(F)cc1)S(C)(=O)=O)C(C)C	i
134	CCN(CC)C(=O)c1sc(NC(=S)Nc2cccc(S(=O)(=O)N3CCOCC3)c2)c(C(=O)OC)c1C	i
135	COc1ccc(-n2nc3cc(C)c(NC(=S)NC(=O)c4ccc(OC)c(OC)c4)cc3n2)cc1	i
136	O=C(NC(=S)Nc1ccc2c3c(cccc13)CC2)c1ccc2c(c1)OCO2	i
